# HPGD block = HPGD (human) dehydrogenase inhibition; P15428; purified HPGD, NADH fluorescence kinetic, PGE2 substrate; Potency, µM, inactives show at the highest dose activity change, negative = inhibition, actives largely listed as inhibitors; 150,000 tested, 4.3% active; active = well fitted inhibition curve with a large enough effect (not every such curve was filed as active); inconclusive = small, poorly fitted or top-dose-only effect, or another doubt; inactive = no such curve, though single readings can be large or run the other way;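 further: top concentration of the series not given in the record; plate controls included wells without enzyme; inactives centre near -10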
# Target sequence (P15428 whole entry, looked up): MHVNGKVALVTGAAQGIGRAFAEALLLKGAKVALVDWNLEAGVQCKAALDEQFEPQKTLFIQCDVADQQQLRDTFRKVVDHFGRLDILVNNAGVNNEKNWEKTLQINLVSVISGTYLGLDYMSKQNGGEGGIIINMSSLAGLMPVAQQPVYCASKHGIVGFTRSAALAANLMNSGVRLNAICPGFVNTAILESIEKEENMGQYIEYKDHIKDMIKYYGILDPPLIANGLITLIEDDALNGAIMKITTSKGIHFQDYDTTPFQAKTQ
#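 20 nM HPGD preincubated 15 min at room temperature with compound in 50 mM Tris-HCl pH 8, 0.01% Tween 20. Started with 1 mM NAD+ and 30 uM prostaglandin E2; NADH fluorescence (360/450 nm) read 5 times over 30-s intervals, last minus first.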
# * = called active by the depositor; ? = inconclusive. On the % scale 0 is the no-effect control and ±100 the full control effect; potency means the concentration at half of the fitted maximal effect.
SMILES,HPGD block
Oc1[nH]c2ccccc2c1N=Nc1nc2ccccc2s1,-11%
CCCn1c(-c2ccc(F)cc2)n[nH]c1=S,?
COc1ccccc1OCC(=O)OC/C(O)=C(\C#N)c1nc2ccccc2[nH]1,-15%
CCOC(=O)c1ccc(N2C(=O)CC(NC3CCN(C(=O)c4cccc(Cl)c4)CC3)C2=O)cc1 (stereo unspecified),-8%
CNc1nc(N)c([N+](=O)[O-])c(NCc2ccccc2)n1,?
O=C(O)C1CCCCC1C(=O)Nc1nccs1 (stereo unspecified),-4%
O=C(NCCCN1CCOCC1)c1cc(-c2ccc(Br)cc2)on1,-30%
Cc1ccc2c(C)c(C(=O)N(Cc3cccs3)C3CCS(=O)(=O)C3)oc2c1 (stereo unspecified),-7%
CSc1nsc(SCc2cnc(C)nc2N)n1,-20%
CCOc1ccccc1-n1c(SCC(N)=O)nc2ccccc2c1=O,-5%
O=C(O)CNC(=O)/C(=C/c1ccco1)NC(=O)/C=C/c1ccccc1,-16%
CCCC(=O)C1=C(O)C(C(=O)OC)C(C)(C)CC1=NC (stereo unspecified),-6%
O=C(NCc1cccnc1)c1ccc(NC(=O)c2ccco2)cc1,-8%
O=C(Nc1ccc2oc(-c3ccccc3)nc2c1)c1cccnc1,-30%
CCN(CC)S(=O)(=O)c1cc(C(=O)Oc2cccc(-c3cnc4ccccc4n3)c2)ccc1Br,-21%
O=C(COc1ncnc2ccccc12)N1CCN(C(=O)c2ccco2)CC1,-2%
CCCOc1ccc([N+](=O)[O-])c(N)c1,-13%
Cc1ccc(NC(=O)CSc2ncnc3ccccc23)cc1S(=O)(=O)N1CCCCCC1,-10%
CCCCCOc1ccc(NS(C)(=O)=O)cc1,-20%
CSc1ccc(NC(=O)[C@H]2CCCC[C@@H]2C(=O)O)cc1,-2%
Cc1ccc(OCCN2C(=O)c3ccccc3C2=O)c(C)c1,22µM*
Cc1cc(C)c(S(=O)(=O)c2c(C)cccc2C)c(OCC(C)C)n1,4%
CCCC1(C(=O)OCC)NC(c2ccc(O)cc2)C2C(=O)N(c3ccc4c(c3)OCCO4)C(=O)C21 (stereo unspecified),-11%
CCOC(=O)Cc1csc(SCC(=O)NC2CCCC(C)C2C)n1 (stereo unspecified),25µM*
Nc1nc2c(c(=O)[nH]1)N[C@H](CCNc1ccc(C(=O)O)cc1)CN2,-7%
Cc1ccc(Nc2nnc(SCC(=O)Nc3ncc(S(=O)(=O)c4ccc([N+](=O)[O-])cc4)s3)s2)cc1,-13%
O=c1c(O)c(-c2ccccc2)oc2cc(O)ccc12,-26%
CCOC(=O)c1cnc2c(c(C)nn2C)c1Oc1ccc(Cl)cc1,-22%
Cc1ccc(C(=O)COc2cccc(NC(=O)c3ccco3)c2)cc1,?
CCOC(=O)N1CCN(S(=O)(=O)c2ccc3c(c2)SCC(=O)N3)CC1,-3%

# Gathered by group, the compounds so far with an NH in an aromatic ring (four)
SMILES,HPGD block
Oc1[nH]c2ccccc2c1N=Nc1nc2ccccc2s1,-11%
CCCn1c(-c2ccc(F)cc2)n[nH]c1=S,?
COc1ccccc1OCC(=O)OC/C(O)=C(\C#N)c1nc2ccccc2[nH]1,-15%
Nc1nc2c(c(=O)[nH]1)N[C@H](CCNc1ccc(C(=O)O)cc1)CN2,-7%

# (list continues)
SMILES,HPGD block
O=C(CN1C(=O)NC2(CCCC2)C1=O)Nc1cccc(-c2nnc3n2CCCCC3)c1,-11%
COc1ccccc1C(c1nnnn1C(C)(C)C)N1CCCc2ccccc21 (stereo unspecified),-8%
CCCCC(NC(=O)c1ccccc1)C(=O)OCC(=O)N1c2ccccc2Sc2ccccc21 (stereo unspecified),-16%
O=C(c1cccc(S(=O)(=O)N2CCOCC2)c1)N1CCCc2ccccc21,-12%
O=C1CCC(=O)N1c1ccccc1-c1ccccc1,-4%
Nc1ccccc1-c1nnc(SCc2ccccc2F)[nH]c1=O,-5%
CC(C)C1N(S(=O)(=O)c2ccccc2)CCN1S(=O)(=O)c1ccccc1,-13%
COc1ccc(-n2cc(C(=O)Nc3cc([N+](=O)[O-])ccc3OC)c3ccccc3c2=O)cc1,-15%
Cc1ccc(Nc2nc(N)nc(CN3CCN(Cc4ccc5c(c4)OCO5)CC3)n2)cc1,-6%
Cc1ccccc1N1CC(C(=O)Nc2nnc(SCC(=O)Nc3nccs3)s2)CC1=O (stereo unspecified),-29%

# Three compounds from above, sorted by molecular weight, low to high.
SMILES,HPGD block
CCCC(=O)C1=C(O)C(C(=O)OC)C(C)(C)CC1=NC (stereo unspecified),-6%
Cc1ccccc1N1CC(C(=O)Nc2nnc(SCC(=O)Nc3nccs3)s2)CC1=O (stereo unspecified),-29%
Cc1ccc(Nc2nnc(SCC(=O)Nc3ncc(S(=O)(=O)c4ccc([N+](=O)[O-])cc4)s3)s2)cc1,-13%

# New compounds follow
SMILES,HPGD block
COc1ccc2nc(SCC(=O)Nc3ccc(S(=O)(=O)Nc4onc(C)c4C)cc3)[nH]c2c1,18µM*
N#CCCN(C(=O)COC(=O)c1ccc(CNS(=O)(=O)c2ccc(F)c(Cl)c2)cc1)c1ccc(F)cc1,-22%
C/C(NCc1ccccc1)=C(\C#N)C(=O)NCc1ccccc1,-17%
Cc1n[nH]c(C)c1S(=O)(=O)N1CCOCC1,-3%
COC(=O)[C@@H]1C2CC3c4[nH]c5cc(OC)ccc5c4CCN3CC2C[C@H](OC(=O)c2cc(OC)c(OC)c(OC)c2)C1OC (stereo partly specified),-19%
CN(C)c1ccc(/C=N/NC(=O)C2COc3ccccc3O2)o1 (stereo unspecified),-11%
Cc1ccc(NC(=S)NC2CC3CCC(C2)N3Cc2ccco2)c(C)c1 (stereo unspecified),-5%
S=P(c1ccc(N2CCOCC2)cc1N1CCOCC1)(N1CCOCC1)N1CCOCC1,25µM*
COc1ccc(NC(=O)C2CCN(C(=O)c3cccs3)CC2)cc1OC,-6%
FC(F)Oc1ccc(-c2csc(Cc3nnc4n3CCCCC4)n2)cc1,-15%
COC(=O)C1(CCSC)NC(c2ccc(O)cc2)C2C(=O)N(c3ccc4c(c3)OCCO4)C(=O)C21 (stereo unspecified),-5%
COc1ccccc1C(=O)N1CCN(c2cccc(Cl)c2)CC1,-5%
N#Cc1ccc(OCC(=O)NCCc2ccc(S(N)(=O)=O)cc2)cc1,-2%
Cc1ccc(C(NC(=O)N2CC(C)OC(C)C2)C(Cl)Cl)cc1F (stereo unspecified),-7%
CCOc1nc(SCCOc2ccccc2)nc(N(C)C)n1,-12%
CCOC(=O)C1=C(C)N=c2s/c(=C\c3cccn3C)c(=O)n2C1c1cccc(OC)c1OC (stereo unspecified),-15%
CCOC(=O)COc1ccc(Cl)cc1C1NC(=O)NC(C)=C1C(C)=O (stereo unspecified),-13%
CC(C)CNC(=O)c1cccc(NC(=O)CSc2ccccc2)c1,-12%
CC(=O)c1c(C)[nH]c(C(=O)OCC(=O)Nc2ccc(Cl)cc2[N+](=O)[O-])c1C,1%
Cc1ccc(CCNC(=O)C2CCN(C(=O)c3sccc3-n3cccc3)CC2)cc1,-3%
CSc1ccccc1C(=O)NC1CC2CCC1C2 (stereo unspecified),-28%
CN(C)c1ncnc2c1ncn2C1OC(CO)C(O)C1O (stereo unspecified),-8%
O=C(Nc1nnc(-c2ccccc2)o1)NC1CCCCC1,8%
CCCCCn1ccc(=O)c2c(C(F)(F)F)nccc21,-25%
CC1CC(=O)c2cnc(NCC3CCCO3)nc2C1 (stereo unspecified),-28%
COc1cccc(N2C(=O)C(CC(=O)Nc3ccc(F)cc3)N(C3CCCCC3)C2=O)c1 (stereo unspecified),-3%
C[C@@H]1NC(=O)c2cc([N+](=O)[O-])cc(I)c2OCC[C@@H](C(=O)NC(CC(=O)O)C(N)=O)NC(=O)[C@H](CC(N)=O)NC1=O (stereo partly specified),-3%
COc1ccc(S(=O)(=O)Nc2ccc(F)c(F)c2)cc1Cl,-18%
COc1cccc(-c2cc(=O)c3cc(NC(=O)c4ccc(C)cc4)ccc3[nH]2)c1,?
C/C=C/C(=O)OCC(=O)Nc1cc([N+](=O)[O-])ccc1Cl,6%
O=C(O)CCCCCNS(=O)(=O)c1cccc2c1C(=O)c1ccccc1C2=O,-16%
CCCCNC(=O)c1onc(CSc2cccc(OC)c2)c1C(=O)O,-24%
CC(C)CC(=O)Nc1ccc2c(c1)oc1ccccc12,-22%
COc1cc(C(=O)NCc2ccc(F)cc2)cc(Cl)c1OC,-1%
O=C(Nc1ccc2c(c1)OCO2)C1CCN(c2ccc(S(=O)(=O)N3CCOCC3)cc2)CC1,-10%
COc1ccc(-c2nc3cnccn3c2Nc2ccc3c(c2)OCO3)cc1,-19%
Cc1ccccc1C(=O)NNC(=S)NC(=O)c1cccnc1,-11%
O=C(O)C1C2C=CC3(O2)C1C(=O)N1c2ccccc2COC13 (stereo unspecified),-5%
COc1ccc(C2(C)NC(=O)N(CC(=O)NCCC3=CCCCC3)C2=O)cc1OC (stereo unspecified),-8%
COc1ccc(C(C)=O)cc1CN1C(=O)NC2(CCCCC2C)C1=O (stereo unspecified),-13%
Cc1ccc(N2CC(C(=O)NCCC(C)C)CC2=O)cc1 (stereo unspecified),-2%
CN1CCN(c2nc(C#N)cc(-c3ccccc3)n2)CC1,-16%
COc1ccc(N2CCN(C(=O)CSc3nnc4c(C)cc5ccccc5n34)CC2)cc1,-14%
CC1(C)CC(=O)C(N=Nc2c(Cl)cc(Cl)cc2Cl)=C(O)C1,-16%
O=S(=O)(c1cccs1)N1CCN(Cc2nc3ccccc3s2)CC1,-14%
COc1ccc(CN2CC(C(=O)NCCN3CCOCC3)CC2=O)cc1 (stereo unspecified),-2%
O=C(O)CSC(C(=O)Nc1ccc(C(F)(F)F)cc1)c1ccccc1 (stereo unspecified),-3%
Cn1cnnc1Sc1cc(N2CCN(S(=O)(=O)c3ccc4ccccc4c3)CC2)ccc1[N+](=O)[O-],-17%
O=C(COc1ccccc1Cl)N1CCN(c2ccc(F)cc2)CC1,-4%
Cc1occc1-c1nnc(SCC(=O)N2CCOCC2)n1CC(C)C,-6%

# As entered above.
# `O=C(COc1ccccc1Cl)N1CCN(c2ccc(F)cc2)CC1` in HPGD block → -4%
# `Cc1occc1-c1nnc(SCC(=O)N2CCOCC2)n1CC(C)C` in HPGD block → -6%
# `COc1ccc(CN2CC(C(=O)NCCN3CCOCC3)CC2=O)cc1` (stereo unspecified) in HPGD block → -2%
# `O=C(O)CSC(C(=O)Nc1ccc(C(F)(F)F)cc1)c1ccccc1` (stereo unspecified) in HPGD block → -3%
# `CC1(C)CC(=O)C(N=Nc2c(Cl)cc(Cl)cc2Cl)=C(O)C1` in HPGD block → -16%
# `Cc1ccc(N2CC(C(=O)NCCC(C)C)CC2=O)cc1` (stereo unspecified) in HPGD block → -2%
# `COc1ccc(N2CCN(C(=O)CSc3nnc4c(C)cc5ccccc5n34)CC2)cc1` in HPGD block → -14%

# More records
SMILES,HPGD block
CCC(C)NC(=O)c1ccccc1NC(=O)CN1C(=O)c2ccccc2S1(=O)=O (stereo unspecified),-9%
CC(=O)NC(=S)Nc1ccccc1C(=O)Nc1ccccc1,-11%
CCOc1cccc(OCCOCCn2cnc3ccccc3c2=O)c1,-2%
COc1ccccc1N1CCN(CC(=O)Nc2ccc(CN3CCCCC3)cc2)CC1,3%
CCCc1nc(SCc2ccccc2Cl)n[nH]1,13µM*
COCCNC(=O)c1c(NC(=O)c2nc(SC)ncc2Cl)sc2c1CCCC2,-10%
O=C(CN1CCN(S(=O)(=O)c2ccc(F)cc2)CC1)Nc1cc(C(F)(F)F)ccc1Cl,-7%
Cc1ccc(NC(=O)C(C)OC(=O)c2ccc(NS(=O)(=O)c3ccc(F)c(F)c3)cc2)cc1 (stereo unspecified),-6%
O=C(NC(=S)Nc1ccc(NC(=O)c2cccs2)cc1)c1cc2ccccc2o1,-25%
COc1ccc(S(=O)(=O)N2CCN(c3ccc4nnc(-c5ccccc5)n4n3)CC2)cc1,?
CC(NC(=O)c1ccco1)C(=O)N1CCc2ccccc2C1 (stereo unspecified),-7%
O=C(/C=C/c1cccc([N+](=O)[O-])c1)NCc1ccc2c(c1)OCO2,-2%
CC(C)Cn1c(O)c2ccc(C(=O)N=NC(=O)c3cccnc3)cc2c1O,1%
O=C(CSc1ccc2c(c1)OCCO2)NC(=O)NC1CCCC1,-12%
CCOc1ccc(-n2c(-c3ccccc3)c[n+]3c2CCCCC3)cc1,-3%
Cc1cc(C)n2nc(SCC(=O)N(C(C)C)C(C)C)nc2n1,?
O=C(OCC(=O)N1CCCC1)c1cncc(Br)c1,-9%
Cc1cc(C)c(C#N)c(SCS(=O)Cc2ccc(Cl)cc2)n1 (stereo unspecified),-17%
O=S(=O)(CCOc1ccccc1)N1CCOCC1,6%
CCCc1[nH]nc2c1C(c1ccccc1OCC)C(C#N)=C(N)O2 (stereo unspecified),-10%

# Three entries from above, reformatted:
molecule	HPGD block
CC(C)Cn1c(O)c2ccc(C(=O)N=NC(=O)c3cccnc3)cc2c1O	1%
O=C(CSc1ccc2c(c1)OCCO2)NC(=O)NC1CCCC1	-12%
CCOc1ccc(-n2c(-c3ccccc3)c[n+]3c2CCCCC3)cc1	-3%

# The results go on:
SMILES,HPGD block
Cc1cc(C)nc(NS(=O)(=O)c2ccc(N/C=C3\CCCC3=O)cc2)n1,-10%
CCOC(=O)c1nn(-c2ccc(Cl)cc2)c2nc(CC)c(C#N)c(=O)n12,?
CC(C)(C)c1nc(C(C)(C)C)c(Br)c(=O)[nH]1,-2%
CCc1nc(SCC(=O)Nc2ccnc3ccccc23)n[nH]1,-19%
Cc1ccccc1NC(=S)NCC(c1cccnc1)N(C)C (stereo unspecified),-6%
CCOC(=O)c1c(C)c(C(=O)Nc2ccc3c(c2)OCCO3)c(C)n1CC,-11%
O=C(c1ccccc1)c1ccc2nc(N3CCCCC3)c3nncn3c2c1,-23%
CCOc1ccc(CC(C(=O)NN)C(=O)NN)cc1CN(C)C,-6%

# High-throughput results deposited in PubChem by National Center for Advancing Translational Sciences (NCATS).

# Not all compounds are listed (hit frequency here may not be typical).
